# eIF4H inh: inhibitors of RNA binding by human eIF4H | Q15056 | eIF4H fluorescence polarization binding assay | 290,000 tested, 0.94% active | AID 2012 | inhibition, % at 35 µM;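 active = 50% or more with normal probe brightness, or confirmed in later tests; inconclusive = above 50% with abnormal brightness, or retests that disagree; inactive = below 50% or failed in later tests; about a fifth of its hits are not listed in these tables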;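 note: calls also rest on retests at 20 µM and on dose response follow-up; 0% = protein and probe with vehicle and 100% = probe without protein; strong numbers were not always called active; many hits fall short of the cut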
# UUG fidelity: alters start codon recognition fidelity in yeast; 350,000 tested, 0.13% active; activity score, % at 18.7 µM; S. cerevisiae UUG-firefly luciferase reporter, luminescence/redox ratio;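 active = replicate mean at a twofold rise or more, about +100% in these data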;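 note: firefly luciferase made from a UUG start codon reports start codon fidelity; reporter light over untreated wells divided by growth signal over untreated wells; some hits fall short of that in this replicate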
# PABP FP inh: blocks human PABP binding to poly(A) RNA; P11940; fluorescence polarization; inhibition, % at 35 µM; 290,000 tested, 1% active;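 active = 50% or more with normal probe brightness, or confirmed in later tests; inconclusive = above 50% with abnormal brightness, or retests that disagree; inactive = below 50% or failed in later tests; about a fifth of its hits are not listed in these tables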;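 note: calls also rest on retests at 20 µM and on dose response follow-up; controls were probe without protein and protein plus probe with vehicle; some compounds called inactive have numbers as strong as hits; many hits fall short of the cut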
# Rce1 inh: blocks yeast Ras-converting enzyme. Q03530. yeast membranes, quenched prenylated peptide cleavage fluorescence. calls only. 290,000 tested, 0.27% active. AID 2563;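 active = fall in fluorescence gain of 50% or more versus controls, with final raw signal at or below 3038400; inconclusive = same 50% fall but final raw signal above 3038400; inactive = fall in fluorescence gain under 50%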;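 note: plate controls were neutral control wells for no effect and wells lacking membranes for full effect; tested at 10 µM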
# Target sequence (Q03530 whole entry, looked up): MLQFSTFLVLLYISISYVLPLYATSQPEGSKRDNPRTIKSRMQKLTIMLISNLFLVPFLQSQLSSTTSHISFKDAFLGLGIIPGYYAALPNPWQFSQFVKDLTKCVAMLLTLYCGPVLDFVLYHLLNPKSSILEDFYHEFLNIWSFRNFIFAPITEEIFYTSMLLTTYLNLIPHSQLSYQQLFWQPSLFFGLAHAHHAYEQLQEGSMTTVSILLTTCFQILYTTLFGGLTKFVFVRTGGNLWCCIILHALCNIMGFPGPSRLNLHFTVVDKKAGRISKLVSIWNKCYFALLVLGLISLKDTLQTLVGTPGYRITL
# CSC inhib: cancer stem cell inhibition | cancer stem cell-like cells viability, luminescence | inhibition, % at 7.5 µM | AID 2717 | 300,000 tested, 1.1% active;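 active = mean at 75% or more and at least half the replicates too; inconclusive = mean and replicates disagree; tested in HMLE shEcad cells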;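 note: 0% = median of negative and 100% = median of positive control wells; the first replicate is given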
# MT1-MMP act inh: blocks activation of human MT1-MMP. P50281. HT1080 RFP-PRO-GFP cells, GFP/RFP ratio fluorescence, overnight; percent of plate control window, DMSO zero. GFP/RFP ratio change, % at 20 µM. 360,000 tested, 0.061% active. AID 651647;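 active = GFP/RFP ratio change of at least 30% with cell ATP level not reduced by more than half and red fluorescence within 50% of control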; note: strong numbers were not always called active
#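 Material – HT1080 RFP-PRO-GFP cells · Control set – DMSO wells and RFP-L50D-GFP cells · Incubation – overnight cell settling, then overnight compound exposure, 37 °C, 5% CO2 · Compound dosing – single-point 20 µM compound, 1% DMSO · Read-out – GFP/RFP fluorescence ratio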
# HIV Env fusion: HIV envelope-mediated fusion inhibition; 360,000 tested, 1.1% active; inhibition, % at 12.3 µM; HeLa-JRFL Env/CEM21 cell fusion, luciferase;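 active = mean replicate inhibition score of at least 50 and every replicate individually at or above 50; inconclusive = only one of the two criteria met; inactive = mean below 50 and not all replicates reaching 50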;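 note: 0% = plate neutral controls and 100% = maraviroc near 300 nM; one replicate is shown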
# eIF4H inh retest: further read-out of eIF4H inh, marked with its call; inhibition, %; compound at 20 µM; confirmation average;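 mean of two retest wells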
# PABP FP inh retest: further read-out of PABP FP inh, marked with its call; inhibition, %; compound at 20 µM; confirmation repeats;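 mean of two retest wells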
# MT1-MMP act inh RFP: further read-out of MT1-MMP act inh, marked with its call; RFP signal change, %; measured here: RFP expression control read;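 0 = vehicle wells; hits needed this value within 50% of zero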
# Active calls of the source: *; i = inactive; ? = inconclusive; . = not tested or not shown; + = active, no number.
SMILES,eIF4H inh,UUG fidelity,PABP FP inh,Rce1 inh,CSC inhib,MT1-MMP act inh,MT1-MMP act inh RFP,HIV Env fusion,others
COc1ccc(OCC(=O)N/N=c2\oc3c(OC)cccc3cc2C(N)=O)cc1,-9,.,-1,i,-10,-2,4,10,
O=C(O)CC(NC(=O)Cc1ccc([N+](=O)[O-])cc1)c1ccc2c(c1)OCO2 (stereo not given),-1,.,2,i,-3,-1,1,?,
O=C(O)C1OCC2(CO1)COC(C(=O)O)OC2 (stereo not given),.,-21,.,.,.,3,7,10,
CCOC(=O)c1ccc(NC(=O)Nc2ccc(F)cc2)cc1,5,-22,-7,i,19,2,1,1,
Cc1cc(C)c2c(=O)[nH]c(SCC(=O)Nc3ccccc3)nc2n1,-6,-11,9,i,-7,0,-1,.,
CC1CCCC(C)N1/N=C/c1ccccc1Br (stereo not given),5,-6,4,i,1,3,3,13,
CCC(=O)Nc1cccc(NC(=S)NC(=O)c2cccc(C)c2)c1,-5,.,-5,i,0,1,-7,-43,
CC(C)CCC1=NN(C(=O)c2ccco2)C(O)(C(F)(F)F)C1 (stereo not given),-7,.,4,i,-6,0,0,19,
Cc1ccc(C(=O)N/C(=C\c2ccc([N+](=O)[O-])cc2)C(=O)NCCc2ccccc2)cc1,-5,-7,-12,i,-6,3,-4,-5,
CC(=O)Nc1ccc(S(=O)(=O)N2CCC(C(=O)NCc3ccncc3)CC2)cc1,.,3,.,i,-20,2,1,-7,
CC1(C(=O)OCc2cc(=O)n3cc(Br)ccc3n2)CC1(Cl)Cl (stereo not given),-4,-7,-5,i,6,8,-2,-31,
CC(C)N1CCN(Cc2cccn2-c2ccccn2)CC1CCO (stereo not given),3,.,-5,i,-5,-3,3,-7,

# Continued, starting with the last two of the part before.
SMILES,eIF4H inh,UUG fidelity,PABP FP inh,Rce1 inh,CSC inhib,MT1-MMP act inh,MT1-MMP act inh RFP,HIV Env fusion,others
CC1(C(=O)OCc2cc(=O)n3cc(Br)ccc3n2)CC1(Cl)Cl (stereo not given),-4,-7,-5,i,6,8,-2,-31,
CC(C)N1CCN(Cc2cccn2-c2ccccn2)CC1CCO (stereo not given),3,.,-5,i,-5,-3,3,-7,
COCCNC(=O)NC(=O)CSc1nc(C)c(C)c(C)n1,-7,-7,-15,i,-9,3,3,9,
O=C(O)c1nc(-c2ccccc2)n(-c2ccc(Cl)cc2)n1,-10,-17,2,i,9,5,3,.,
CCO[C@H]1OC(C(=O)NC2CC2)=C[C@@H](c2ccc3c(c2)OCO3)[C@@H]1CCCO,4,-12,1,i,-6,0,6,0,
CCn1c(CCCOc2ccc(Cl)cc2Cl)nnc1SCC(=O)Nc1cc(F)ccc1C,-13,.,0,i,19,-3,-12,23,
Clc1ccsc1-c1ccnc(-n2cccc2)n1,2,-13,11,i,-2,-2,5,-26,
CCCCN(C(=O)CSc1nnnn1C)c1c(N)n(Cc2ccccc2)c(=O)[nH]c1=O,-10,-9,0,i,.,3,0,0,
COCCn1c(Cc2ccccc2)nnc1SCC(=O)NC(C)C,5,2,-15,i,-7,3,4,.,
O=C(NCc1ccccc1)Nc1cccc2ccccc12,0,.,-1,i,-15,-1,-1,-1,
Cc1ccc(C)c(NC(=S)N2CCC(NC(=O)c3ccccc3)CC2)c1,1,-24,-4,i,-36,13,0,0,
O=C(CN1C(=O)COc2ccccc21)N1CCc2ccccc2C1,4,-16,-5,i,-4,2,4,-48,
CCOC(=O)c1ccc(S(=O)(=O)N2CCN(C/C=C/c3ccccc3)CC2)cc1,.,-10,.,.,-3,2,-7,-12,
O=S(=O)(c1cccc(S(=O)(=O)N2CCCC2)c1)c1cccc(S(=O)(=O)N2CCCC2)c1,1,.,-10,i,10,0,-8,.,
O=C(CCCC1=NS(=O)(=O)c2ccccc2N1)N1CCN(c2ccc([N+](=O)[O-])cc2)CC1,.,-3,.,i,-9,3,-8,-2,
COc1ccc(-c2cc3nc(NCCCN(C)C)n(C)c(=O)c3s2)c(C)c1,.,-7,.,.,.,0,2,-179,
COc1ccc(CNC(=O)CCn2c(C)csc2=O)cc1,.,-2,.,.,0,-3,0,.,
Cc1cc(N2CCN(c3ccccc3F)CC2)nc2cc(O)ccc12,9,-19,2,i,39,6,2,.,
CN(CC(=O)Nc1ccccc1Cl)C(=O)C1CSC2(C)CCC(=O)N12 (stereo not given),.,-8,.,.,-19,3,5,-1,
CC1=C(C(=O)N(C(C)C)C(C)C)CC(CC(=O)NCc2ccco2)C(=O)N1CCC1=CCCCC1 (stereo not given),.,7,.,.,.,0,0,14,
Cc1ccccc1CC(=O)Nc1ccc2c(c1)c(=O)n(C)n2-c1cccs1,.,-4,.,.,.,1,1,-111,
COc1ccc(OCC(=O)N2CCc3c([nH]c4ccccc34)C2c2ccccn2)cc1 (stereo not given),-7,.,-6,i,-8,-1,0,17,
CCc1nc2c(OCc3ccc4c(c3)OCO4)cccn2c1N(C=O)Cc1ccc(OC)cc1,.,-16,.,.,.,-4,-6,-6,
O=S1(=O)CC(N2CCN(c3ccccn3)CC2)CN1Cc1ccccc1 (stereo not given),.,4,.,.,.,3,3,35,
Cc1ccc(S(=O)(=O)c2cn(C)c3cc(N4CCOCC4)c(F)cc3c2=O)cc1,-9,-13,1,+,-3,-3,-5,4,
O=C(COc1coc(CN2CCc3ccccc32)cc1=O)Nc1cccc(F)c1,.,-24,.,i,-5,2,2,12,
O=C(CSc1nncs1)NC(=O)Nc1ccc2c(c1)OCCO2,-2,.,-3,.,6,4,0,-28,
C=CCC(NCc1ccccc1)c1ccc(Cl)cc1 (stereo not given),2,-8,3,i,10,3,0,23,
CCOc1ccc(N(CC(=O)Nc2ccc(OC)cc2)C2=NC3CS(=O)(=O)CC3S2)cc1 (stereo not given),-24,-5,-11,i,0,5,7,6,
O=C(NCCN1CCOCC1)c1ccc(NC(=O)C2COc3ccccc3O2)cc1 (stereo not given),6,-4,-3,i,-9,4,3,2,
CCN(CC(=O)Nc1c(F)cccc1F)C(=O)c1ccc2c(c1)S(=O)(=O)N=C1CCCCCN12,.,.,.,i,1,-1,1,3,
Cc1ccc(NC(=O)c2cc(S(=O)(=O)N3CCOCC3)ccc2F)c(C)c1,4,3,1,i,-11,10,1,-61,
Cc1ccc(C(=O)N/C(=C\c2cccnc2)c2nc3ccccc3[nH]2)cc1,-10,.,5,i,-13,-4,-3,.,
CCCCn1c(N)c(N(CCOC)C(=O)CSc2nnc(-c3ccncc3)n2CCC)c(=O)[nH]c1=O,.,.,.,i,.,0,0,8,
CCOC(=O)c1cnn2c(N)c(C#N)nnc12,-8,-14,4,i,1,8,3,.,
CN(c1ccc(C(=O)Nc2ccc3c(c2)n(C)c(=O)n3C)cc1)S(C)(=O)=O,-2,-23,-10,i,5,8,6,-12,
CC(C)[C@H](NC(N)=O)C(=O)NNC(=O)COc1cccc(C(F)(F)F)c1,3,.,18,i,-2,1,3,-5,
Cc1onc(-c2c(F)cccc2Cl)c1C(=O)NCCc1ccncc1,11,-23,7,i,2,-3,3,-364,

# Reprinted at random: 3 entries already listed
SMILES,eIF4H inh,UUG fidelity,PABP FP inh,Rce1 inh,CSC inhib,MT1-MMP act inh,MT1-MMP act inh RFP,HIV Env fusion,others
O=C(CSc1nncs1)NC(=O)Nc1ccc2c(c1)OCCO2,-2,.,-3,.,6,4,0,-28,
CCN(CC(=O)Nc1c(F)cccc1F)C(=O)c1ccc2c(c1)S(=O)(=O)N=C1CCCCCN12,.,.,.,i,1,-1,1,3,
C=CCC(NCc1ccccc1)c1ccc(Cl)cc1 (stereo not given),2,-8,3,i,10,3,0,23,

# Arranged by molecular weight (ascending): 4 of the compounds above.
SMILES,eIF4H inh,UUG fidelity,PABP FP inh,Rce1 inh,CSC inhib,MT1-MMP act inh,MT1-MMP act inh RFP,HIV Env fusion,others
O=C(CSc1nncs1)NC(=O)Nc1ccc2c(c1)OCCO2,-2,.,-3,.,6,4,0,-28,
Cc1ccc(C(=O)N/C(=C\c2cccnc2)c2nc3ccccc3[nH]2)cc1,-10,.,5,i,-13,-4,-3,.,
Cc1onc(-c2c(F)cccc2Cl)c1C(=O)NCCc1ccncc1,11,-23,7,i,2,-3,3,-364,
CCN(CC(=O)Nc1c(F)cccc1F)C(=O)c1ccc2c(c1)S(=O)(=O)N=C1CCCCCN12,.,.,.,i,1,-1,1,3,

# (continued)
SMILES,eIF4H inh,UUG fidelity,PABP FP inh,Rce1 inh,CSC inhib,MT1-MMP act inh,MT1-MMP act inh RFP,HIV Env fusion,others
CCOC(=O)c1[nH]c(=O)c2ccccc2c1O,13,-25,0,i,-16,1,5,-16,
Cc1ccc(CSc2nnc(CC(=O)Nc3ccc(C)cc3)n2C)cc1,5,.,5,i,10,-1,-1,-23,
Cc1cc(Cl)nc(-n2nc(C)cc2C)n1,4,-5,2,i,-13,1,3,9,
Fc1ccc(C2c3[nH]c4ccccc4c3CCN2Cc2ccoc2)cc1 (stereo not given),0,.,-12,i,10,-12,-5,21,
COc1ccc(C(=O)N/N=C2\CCS(=O)(=O)c3ccc(F)cc32)cc1OC,-4,.,-6,i,14,-4,-5,-4,
COC(=O)CCCn1c(C)cc(C(=O)CCl)c1C,1,.,2,i,5,-1,3,-3,
COc1cc(/C=C2\C(=N)N3N=C(S(=O)(=O)CC(C)C)SC3=NC2=O)ccc1OC(=O)c1ccco1,-17,.,-2,i,2,.,.,.,
Cc1cc(C)n2nc(SCC3COc4ccccc4O3)nc2n1 (stereo not given),-4,8,-3,i,.,2,-1,-161,
N=c1sccn1CC(=O)Nc1cc(Cl)ccc1Oc1ccccc1,-2,-10,19,i,0,-4,-4,.,
O=C(c1cc(-c2ccc(Br)cc2)on1)N1CCc2ccccc2C1,3,-15,4,i,45,2,3,5,
CC1CCN(c2ccc3nnc(CCC(=O)Nc4cc(F)ccc4F)n3n2)CC1,13,-22,6,i,-7,1,0,-2,
Cc1ccc(S(=O)(=O)Nc2c(C(=O)O)[nH]c3ccccc23)c(C)c1,-2,-5,7,i,-6,-2,3,-9,
COc1cc(/C=C2/C(=N)N3C(=NC2=O)SN=C3S(C)(=O)=O)ccc1OS(=O)(=O)c1ccc(C)cc1,21,-2,7,i,52,-12,-3,2,
Cc1sc(NC(=O)C2CCCO2)c(C(N)=O)c1C (stereo not given),92,-18,-5,i,-8,-5,2,-205,eIF4H inh retest=23;PABP FP inh retest=31
CCCCc1c(O)nc(SCC(=O)N2CCCCC2)[nH]c1=O,5,-11,1,i,12,-1,3,1,
CCOC(=O)c1[nH]c2ccc(C(=O)OC)cc2c1C(=O)OCC,-4,-6,8,i,3,8,-1,.,
O=C(NNC(=O)C12CC3CC(CC(Br)(C3)C1)C2)c1ccccc1F,.,-15,.,.,-1,0,-3,8,
CCN(CC(=O)Nc1cc(Cl)ccc1C)C(=O)c1nc2nc(C)cc(C)n2n1,.,8,.,.,.,-3,2,-7,
COc1cc(/C=C/C(=O)OCC(=O)Nc2ccc(Cl)cn2)ccc1O,.,16,.,.,.,4,6,-6,
CCOC(=O)CC(NC(=O)c1ccco1)c1ccc(OC)cc1 (stereo not given),2,-16,2,i,-4,0,-2,-429,

# Filtered by structure, those above containing a CF3 group (two)
SMILES,eIF4H inh,UUG fidelity,PABP FP inh,Rce1 inh,CSC inhib,MT1-MMP act inh,MT1-MMP act inh RFP,HIV Env fusion,others
CC(C)CCC1=NN(C(=O)c2ccco2)C(O)(C(F)(F)F)C1 (stereo not given),-7,.,4,i,-6,0,0,19,
CC(C)[C@H](NC(N)=O)C(=O)NNC(=O)COc1cccc(C(F)(F)F)c1,3,.,18,i,-2,1,3,-5,

# This is a random part of the collection. Share with any hit: about 2.9%.
